HNF4A DNA FP = change in binding of human HNF4 alpha to DNA. P41235. activity change, % at 10 µM. HNF4a-FITC DNA binding, fluorescence polarization, 1 h. 360,000 tested, 0.3% active. AID 1224865; in the data active = activity change above about 30%, passing the limit was not always enough;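 also: controls were the assay level and a saturating level of protein; the project sought stronger binding though the title names inhibitors; some compounds called inactive have numbers as strong as hits; positive values seem to mean higher polarization but the record does not say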
Target sequence (P41235 whole entry, looked up): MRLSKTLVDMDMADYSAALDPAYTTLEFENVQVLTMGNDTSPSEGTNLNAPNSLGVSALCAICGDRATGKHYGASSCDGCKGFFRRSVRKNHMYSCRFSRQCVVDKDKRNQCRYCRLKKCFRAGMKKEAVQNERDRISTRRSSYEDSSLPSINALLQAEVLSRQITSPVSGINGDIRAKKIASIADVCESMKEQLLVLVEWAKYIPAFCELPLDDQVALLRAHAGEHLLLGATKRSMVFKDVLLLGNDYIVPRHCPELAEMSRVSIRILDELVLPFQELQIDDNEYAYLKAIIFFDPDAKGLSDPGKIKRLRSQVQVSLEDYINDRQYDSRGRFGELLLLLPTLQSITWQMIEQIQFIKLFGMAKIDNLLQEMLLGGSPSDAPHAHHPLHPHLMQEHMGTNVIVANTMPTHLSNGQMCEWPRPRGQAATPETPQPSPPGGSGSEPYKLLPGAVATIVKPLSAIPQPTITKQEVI
Bfl-1 A1 inh = inhibitors of the anti-apoptotic protein A1, read as caspase activation. 330,000 tested, 0.066% active. AID 2462. caspase activation, % (test concentration not listed). MEF A1-2A-BIM cells, Caspase-Glo 3/7 luminescence, 3 h; percent of clofoctol response, vehicle zero;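 active = over half of replicate activation scores above 10%, or exactly half above 10 with the replicate mean above 10; inconclusive = replicate mean below 10 yet half the replicates above 10; inactive = over half of replicates below 10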;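 also: wells of about 30 µL received 50 nL stock; many hits fall short of the cut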
Vif TR-FRET = HIV-1 Vif–A3G interaction blockers – biochemical, TR-FRET, GST-Vif 1-94, biotin-A3G peptide, dose response retest, primary screen (AID 1117319). inhibition, %, or IC50 in µM where a hit was titrated. 260,000 tested, 0.57% active. TR-FRET GST-Vif / biotin-A3G peptide binding; higher % means a stronger effect; test concentration not given here; strong numbers were not always called active;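 active = above the screen mean plus three standard deviations and confirmed in dose response; inconclusive = results disagree or hit not tested in dose response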;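 also: Vif residues 1-94 fused to GST binding biotinylated APOBEC3G peptide 110-148; 0% = full assay without inhibitor and 100% = GST in place of GST-Vif; retest series ran down from 100 µM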
LANA-H2A inh = blocks KSHV LANA binding to histone H2A/H2B. Q9QR71. cell-free LANA-H2A/H2B peptide, fluorescence polarization. inhibition, % (test concentration not listed). 320,000 tested, 0.6% active; in the data active = inhibition mostly above about 10%, no sharp cut-off; inactive = mostly below about 6.7%;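 also: stock transfer was 7.5 nL into about 10 µL; 0% = median of vehicle wells and 100% = median of positive control wells; one replicate is shown; the record names a cut of 25% in any replicate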
Beta2AR agonist = agonists of human beta-2 adrenergic receptor inducing internalization; P07550; Am2.2-beta2AR cells, FAP receptor internalization, flow cytometry; reference of the scale not given here; response, % (no concentration beside the values); 340,000 tested, 0.43% active;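 active = response above a set limit, near 3 SD of response in nonfluorescent compounds, cut at about 42% in these data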;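 also: stock transfer was 100 nL into about 11 µL; a reference agonist was the positive control; negative values mostly stem from fluorescent compounds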
Target sequence (P07550 whole entry, looked up): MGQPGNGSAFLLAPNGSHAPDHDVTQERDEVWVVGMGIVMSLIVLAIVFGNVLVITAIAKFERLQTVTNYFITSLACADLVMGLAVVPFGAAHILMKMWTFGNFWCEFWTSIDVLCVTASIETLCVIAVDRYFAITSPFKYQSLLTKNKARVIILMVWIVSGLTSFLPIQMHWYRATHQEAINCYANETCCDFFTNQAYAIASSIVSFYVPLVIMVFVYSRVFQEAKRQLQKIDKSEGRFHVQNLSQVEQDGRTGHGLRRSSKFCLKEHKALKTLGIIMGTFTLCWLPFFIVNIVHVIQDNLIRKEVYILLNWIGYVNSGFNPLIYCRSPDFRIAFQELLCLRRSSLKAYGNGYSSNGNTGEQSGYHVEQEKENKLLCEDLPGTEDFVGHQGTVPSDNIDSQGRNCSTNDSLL
Ecoli growth = blocks Escherichia coli growth; 330,000 tested, 0.21% active; OD600, 23 h; active compounds read low; OD600 absorbance (no concentration beside the values);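 active = OD600 absorbance below the run mean of sample wells minus 3.6 SD, in any replicate, cut at about 0.56 in these data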;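 also: stock transfer was 300 nL into about 60 µL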
UCH37 inh = blocks the human deubiquitinase UCH37; Q9Y5K5; purified proteasome/UCH37, Ub-AMC cleavage fluorescence; inhibition, % (concentration not given with the values); 330,000 tested, 0.33% active; AID 588478;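 active = mean of two replicates above 20%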;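 also: 0% = compound-free wells with enzyme and 100% = wells lacking proteasome; stock transfer was 100 nL into about 20 µL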
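Signal – fluorescence, ex 355 nm, em 460 nm · System – Proteasome-bound UCH37 · Input – 0.15 nM proteasome as dispensed · Timing – 30 min preincubation with enzyme, 25 min cleavage at room temperature · Read-out basis – percent inhibition of cleavage signal versus uninhibited and no-proteasome wells · Medium – Tris-HCl pH 7.4 with ATP-MgCl2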
The depositor's hits bear a star; i = inactive; ? = inconclusive; . = no result given; & = joins results of further samples.

Below each SMILES – HNF4A DNA FP	Bfl-1 A1 inh	Vif TR-FRET	LANA-H2A inh	Beta2AR agonist	Ecoli growth	UCH37 inh
[1] Cc1cccc(NC(=O)C2CCN(S(=O)(=O)c3cccc4nsnc34)CC2)c1
→ 2.3	0.7	17%	-0.2	1	0.71	1.2
[2] N#CC(C#N)=Cc1cc2ccccc2nc1N1CCCCC1
→ 1.5	-0.4	.	2.7	6	0.66	1.6
[3] COCCN(C(=O)COC(=O)c1cc(C)oc1C)c1c(N)n(Cc2ccccc2)c(=O)[nH]c1=O
→ -0.3	-0.5	.	-0.9	-5	0.67	4.7
[4] CCOC(=O)c1c(C)oc2cc(Sc3ccccc3)c(O)c(O)c12
→ -1.5	1.0	.	-4.6	-3	0.71	7.2
[5] COC(=O)c1ccccc1NC(=O)NCCc1ccc(OC)c(OC)c1
→ 0.0	0.0	.	-4.1	-17	0.69	-0.4
[6] Cc1ncc(CSc2nccc(=O)[nH]2)c(CO)c1O
→ 3.1	-0.4	-3%	0.7	-2	0.64	-5.3
[7] CCOCCCn1cnc2c3cc(F)ccc3n(C)c2c1=O
→ 1.3	1.5	-4%	1.2	-15	0.64	-100
[8] CCOc1ccccc1CNCC1CCCO1 (stereo not drawn)
→ 3.9	0.7	.	1.0	-7	0.68	1.5
[9] O=C(NC(=S)NCc1ccco1)c1ccccc1[N+](=O)[O-]
→ 2.6	0.6	-1%	1.5	2	0.6	2.2
[10] Cc1ccc(C)c(Nc2nc3nonc3nc2N2CCOCC2)c1
→ -1.0	0.9	-3%	0.8	-5	0.61	10

Continued.
Below each SMILES – HNF4A DNA FP	Bfl-1 A1 inh	Vif TR-FRET	LANA-H2A inh	Beta2AR agonist	Ecoli growth	UCH37 inh
[11] Cc1ccc2nc(Cl)c(C3CC(c4cccs4)=NN3S(C)(=O)=O)cc2c1 (stereo not drawn)
→ 2.4	-0.1	.	3.0	-3	0.7	1.4
[12] CCc1ccc(C(=O)Cn2ncc(Cl)c(Cl)c2=O)cc1
→ -1.4	1.1	-17%	12	40	0.8	-2.6
[13] CCOc1cc(C(c2c(C)[nH][nH]c2=O)c2c(C)[nH][nH]c2=O)cc([N+](=O)[O-])c1O
→ 2.4	-0.1	2%	1.0	9	0.67	13
[14] Cc1ccc(Cn2c(C(C)Nc3nc(-c4ccc(Cl)c([N+](=O)[O-])c4)cs3)nc3cc(C(F)(F)F)ccc32)cc1 (stereo not drawn)
→ -3.3	0.2	.	-1.6	-6	0.69	1.5
[15] CC(C)[C@H]1CN(C)CCN1Cc1cn(C)nc1-c1cccc(Cl)c1
→ -0.6	0.7	-1%	-6.7	-6	0.67	1.4
[16] Cc1ccc([C@@H]2[C@@H]3C(=O)N(C)C(=O)[C@@H]3[C@]3(Cc4ccccc4)C(=O)N(Cc4ccccn4)CC(=O)N23)o1
→ 3.9	1.0	.	1.3	6	.	0.4
[17] O=C(Nc1ccc(Br)c(C(F)(F)F)c1)c1ccc(C(F)(F)F)cc1
→ 1.2	-0.3	-7%	-0.9	32	0.62	2.0
[18] NS(=O)(=O)OCCCCCc1ccccc1
→ -5.0	0.8	.	3.9	-2	0.68	15
[19] FC(F)(F)c1cc(N2CCOCC2)nc(-c2ccccc2)n1
→ -3.2	0.3	.	4.1	3	0.67	-2.0
[20] O=c1oc2ccccc2c2c1C(O)CO2 (stereo not drawn)
→ 1.6	-1.9	-3%	-6.5	-15	0.66	-0.1

Whole records, quoted from the list. Order of values: HNF4A DNA FP	Bfl-1 A1 inh	Vif TR-FRET	LANA-H2A inh	Beta2AR agonist	Ecoli growth	UCH37 inh
O=C(Nc1ccc(Br)c(C(F)(F)F)c1)c1ccc(C(F)(F)F)cc1 reads 1.2	-0.3	-7%	-0.9	32	0.62	2.0
Cc1ccc([C@@H]2[C@@H]3C(=O)N(C)C(=O)[C@@H]3[C@]3(Cc4ccccc4)C(=O)N(Cc4ccccn4)CC(=O)N23)o1 reads 3.9	1.0	.	1.3	6	.	0.4

Next section:
Below each SMILES – HNF4A DNA FP	Bfl-1 A1 inh	Vif TR-FRET	LANA-H2A inh	Beta2AR agonist	Ecoli growth	UCH37 inh
[21] Cc1ccc(NC(=O)CCCn2nc(C)c3c(C)n(-c4ccccc4)nc3c2=O)c(Cl)c1
→ 1.8	1.0	.	-1.1	-4	0.69	1.8
[22] O=C(O)C1CCCCC1C(=O)NCCCN1CCOCC1 (stereo not drawn)
→ -2.4	0.0	-3%	0.7	0	0.69	-2.1
[23] O=C(/C=C/c1ccccc1)Nc1cc(S(=O)(=O)N2CCOCC2)ccc1N1CCCC1
→ -0.8	-0.2	-10%	3.3	1	0.67	2.9
[24] N/C(=N\OC(=O)c1cccc(F)c1)c1ccccc1
→ -0.8	-7.2	-2%	-1.0	-19	0.66	2.8
[25] CCOC(=O)c1c(C)nc2sc3c(=O)n(-c4ccc(C(C)=O)cc4)cnc3c2c1-c1ccc(OC)cc1
→ 2.4	0.1	-20%	0.9	23	0.76	-1.0
[26] Cn1cc([N+](=O)[O-])c(C(=O)Nc2nccs2)n1
→ 1.9	-0.3	.	-2.0	5	.	.
[27] O=C(CN1CCN(c2ccccc2)CC1)Nc1ccccc1C(F)(F)F
→ 0.4	0.4	-3%	5.7	10	0.78	1.7
[28] COc1ccc(NC(=O)c2[nH]ncc2[N+](=O)[O-])cc1
→ 2.0	-0.2	5%	-3.0	4	0.65	7.4
[29] CCC/C(C#CCCN1C(=O)c2ccccc2C1=O)=C1/c2ccccc2C(=O)N1c1ccccc1
→ 13	-0.5	.	1.8	14	.	6.7
[30] COc1ccc(CNc2nc(-c3cccnc3)nn2C(=O)c2ccco2)cc1
→ 0.1	0.6	6%	-2.5	0	0.76	-17

Other records
Below each SMILES – HNF4A DNA FP	Bfl-1 A1 inh	Vif TR-FRET	LANA-H2A inh	Beta2AR agonist	Ecoli growth	UCH37 inh
[31] O=C(CSCc1c(Cl)cccc1Cl)Nc1ccccc1-c1ccccc1
→ 1.1	-0.6	13%	-315	-10	0.66	4.9
[32] Cc1cc(NC(=O)COC(=O)C2CCN(S(=O)(=O)c3ccccc3)CC2)c([N+](=O)[O-])cc1C
→ -1.8	0.4	-7%	-7.3	-5	0.75	5.9
[33] CN(C)S(=O)(=O)c1cc(NC(=O)CNCc2ccc(F)cc2)ccc1Cl
→ 6.7	-0.4	2%	0.7	-4	0.65	1.4
[34] O=S1(=O)CCO[C@H]2Cc3ccccc3[C@H]2N1Cc1cccc(Cl)c1
→ 1.2	1.2	.	-1.7	-5	.	3.5
[35] O=C(c1ccco1)N1CCN(C(=O)C2CCN(S(=O)(=O)c3cccs3)CC2)CC1
→ 2.2	3.7	1%	2.1	4	0.67	2.3
[36] Cc1c(C(=O)NCc2cccnc2)oc2ccc(S(=O)(=O)N3CC(C)CC(C)C3)cc12 (stereo not drawn)
→ -7.0	0.5	7%	2.1	14	0.74	-2.1
[37] CCC(C)/C(C)=N/NC(=O)c1ccccc1OCCOc1ccccc1 (stereo not drawn)
→ 0.0	0.2	-10%	-1.9	23	.	.
[38] CC1=Cc2ccccc2C(C#N)N1C(=O)c1ccccc1 (stereo not drawn)
→ 5.8	0.1	?	-3.6	8	0.63	1.9
[39] O=C(c1cn(-c2ccccc2)nc1-c1ccccc1)N1CCOCC1
→ 3.7	0.4	12%	0.4	-17	0.68	2.4
[40] COc1ccc(C(=O)Nc2ccc(NC(=O)c3cccc(OC)c3)cn2)cc1
→ 0.3	0.1	.	3.3	10	0.67	-7.1

Continuation.
Below each SMILES – HNF4A DNA FP	Bfl-1 A1 inh	Vif TR-FRET	LANA-H2A inh	Beta2AR agonist	Ecoli growth	UCH37 inh
[41] COc1ccc(C(CC(=O)O)n2cnnn2)cc1 (stereo not drawn)
→ 0.1	0.4	-4%	-4.4	4	0.68	2.7
[42] CC(Oc1ccc(C#N)cc1)C(=O)c1ccc(F)c(F)c1 (stereo not drawn)
→ 1.6	0.2	-4%	-2.6	2	0.74	2.8
[43] Cn1c(=O)[nH]c(=O)c2c1nc(SCCC(=O)O)n2Cc1cccc(Br)c1
→ 1.1	-0.9	?	-3.8	-1	.	.
[44] CC1CN(C/C(=N\O)C23CC4CC(CC(C4)C2)C3)CC(C)O1 (stereo not drawn)
→ -4.6	0.5	-5%	0.9	6	.	.
[45] CC1(C)C/C(=N\O)C(C(O)c2cccc([N+](=O)[O-])c2)C(C)(C)N1 (stereo not drawn)
→ -1.8	0.5	0%	3.0	0	.	.
[46] COc1ccc(N2CSC3=C(C#N)C(c4ccc(OC)c(OC)c4)CC(=O)N3C2)c(OC)c1 (stereo not drawn)
→ 2.3	-0.1	?	2.2	-4	0.66	4.7
[47] Cc1ccc(NC2=NCC(Cc3ccc(Br)cc3)S2)cc1 (stereo not drawn)
→ -1.9	-0.1	.	0.5	-2	0.67	0.9
[48] Cc1ccc(C(=O)Nc2nc(-c3ccccn3)cs2)cc1S(=O)(=O)N1CCOCC1
→ 4.1	0.2	-21%	-2.9	12	0.64	5.1
[49] CC1C(=O)Nc2ccccc2N1C(=O)c1ccc(Cl)c(Cl)c1 (stereo not drawn)
→ -0.8	0.7	-8%	6.2	-8	0.68	0.7
[50] O=C(/C=C/c1cccc([N+](=O)[O-])c1)N1CCN(c2ccc(F)cc2)CC1
→ 4.9	-0.1	28%	-0.2	4	.	1.6

Going on with the list:
Below each SMILES – HNF4A DNA FP	Bfl-1 A1 inh	Vif TR-FRET	LANA-H2A inh	Beta2AR agonist	Ecoli growth	UCH37 inh
[51] CC(C)(C)n1nnnc1C(c1cccnc1)N1CCOCC1 (stereo not drawn)
→ 0.1	-0.4	2%	0.7	0	0.72	2.3
[52] O=C(Cc1ccc(Cl)cc1)NCCCn1ccnc1
→ 0.6	1.6	1%	0.9	-1	0.74	3.6
[53] CCOC(=O)N1CCC(NC(=O)c2ccc3c(c2)N(C)CCS3)CC1
→ -1.9	-0.3	29%	3.5	-5	0.77	i
[54] CN(CC(=O)N1CC(=O)N(CCc2ccccc2)C(=O)C1)S(=O)(=O)c1cccc2nsnc12
→ 2.7	-0.9	5%&-11%	1.1	-10	0.72	1.3
[55] COc1cccc(C(=O)NC2CC(C)(C)NC(C)(C)C2)c1OC
→ 5.6	0.1	-2%	5.1	-4	.	.
[56] O=C(CNCc1ccncc1)Nc1cc(S(=O)(=O)N2CCCCC2)ccc1Cl
→ 19	0.4	?	-0.2	4	0.7	4.9
[57] O=C(NCc1ccco1)c1cccc(NS(=O)(=O)c2ccccc2F)c1
→ 2.3	0.6	6%	-1.5	1	0.69	0.6
[58] O=C(COC(=O)Cn1cnc2ccccc21)Nc1ccc2c(c1)C(=O)c1ccccc1C2=O
→ 6.9	-3.9	.	0.8	19	.	.
[59] FC(F)(F)c1cccc(N2CCN(C(=S)NC3CCCC3)CC2)c1
→ 1.8	0.1	5%	1.9	-8	0.67	2.6
[60] CC1(C)Cc2c(sc(NC(=O)C(=O)N3CCCC3)c2C(N)=O)CO1
→ 1.5	-0.6	-2%	-0.1	-17	0.68	4.8

Remaining list, next part:
Below each SMILES – HNF4A DNA FP	Bfl-1 A1 inh	Vif TR-FRET	LANA-H2A inh	Beta2AR agonist	Ecoli growth	UCH37 inh
[61] COC(=O)C1=C(C)N(Cc2ccccc2)C(=NCC(C)C)N[C@H]1c1cccc(C(F)(F)F)c1
→ 4.7	0.7	.	4.3	34	.	2.4
[62] COc1ccc(S(=O)(=O)N2CCCN(S(=O)(=O)c3ccc(OC)c(C)c3)CC2)cc1C
→ -1.8	-0.1	2%	-4.4	0	0.73	2.7
[63] Cc1cc(N2CCOCC2)ccc1/C=C1\SC(=O)N(C(C)C)C1=O
→ 14	-0.2	-3%	2.8	6	0.73	4.0
[64] COc1ccc(-c2noc(-c3cccnc3)n2)cc1OC
→ 0.6	-5.0	.	1.0	-13	0.68	4.8

Assay outcomes: PubChem, several laboratories
